FGF22 binding = FGF22 (human) thermal shift binding | Q9HCT0 | recombinant FGF22 thermal shift, SYPRO orange fluorescence; percent of sucrose octasulfate shift, DMSO zero | calls only at 9.99 µM | actives 1.5% (n = 340,000) | AID 651658;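 active = melting point raised past a set limit in the mean and every replicate; three in four hits are not shown here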
Target sequence (Q9HCT0 whole entry, looked up): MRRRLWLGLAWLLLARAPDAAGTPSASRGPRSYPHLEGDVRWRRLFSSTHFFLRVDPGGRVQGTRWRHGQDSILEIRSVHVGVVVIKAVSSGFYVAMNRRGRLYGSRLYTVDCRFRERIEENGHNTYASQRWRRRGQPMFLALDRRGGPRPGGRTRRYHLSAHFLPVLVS
AF4-AF9 inh = MLL-AF4/AF9 protein interaction inhibition; actives 0.47% (n = 350,000); inhibition, % at 10 µM; AlphaScreen, biotin-AF4 peptide binding to FLAG-AF9;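 active = every replicate reaching a set inhibition limit, whatever the replicate mean, cut at about 25% in these data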;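 also: 0% = plate neutral control median and 100% = total signal loss; the record names both 10 and 1 µM as test concentration; the first replicate is given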
Target sequence (P42568 whole entry, looked up): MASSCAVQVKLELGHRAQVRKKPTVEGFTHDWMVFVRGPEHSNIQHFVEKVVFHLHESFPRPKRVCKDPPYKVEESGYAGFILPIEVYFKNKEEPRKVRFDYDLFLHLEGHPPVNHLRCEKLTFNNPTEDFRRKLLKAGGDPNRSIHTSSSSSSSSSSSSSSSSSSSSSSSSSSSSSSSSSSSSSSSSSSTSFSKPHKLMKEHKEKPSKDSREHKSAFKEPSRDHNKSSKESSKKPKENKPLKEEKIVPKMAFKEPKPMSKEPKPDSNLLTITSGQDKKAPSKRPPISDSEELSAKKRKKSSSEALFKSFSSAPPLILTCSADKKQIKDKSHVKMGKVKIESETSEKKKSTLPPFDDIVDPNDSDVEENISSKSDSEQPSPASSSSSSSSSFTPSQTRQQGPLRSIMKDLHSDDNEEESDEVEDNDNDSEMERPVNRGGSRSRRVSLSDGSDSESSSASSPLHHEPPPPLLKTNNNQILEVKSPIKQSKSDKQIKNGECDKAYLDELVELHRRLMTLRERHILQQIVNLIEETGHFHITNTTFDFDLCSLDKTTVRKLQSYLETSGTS
rRNA inh HTS = selective bacterial rRNA inhibition in E. coli; E. coli WT GFP vs humanized-ribosome RFP mutants, fluorescence, 24 h; stronger effect = lower value; DMSO median 0, no signal -100; GFP signal change (wild-type ribosome), % (no concentration beside the values); actives 1.6% (n = 350,000); AID 720706;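 active = significant combined selectivity score with lowered wild-type GFP, culture density cut under 30%, mutant RFP and density less affected; inactive = any of these conditions unmet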; also: one replicate is shown; some compounds called inactive have numbers as strong as hits
rRNA inh HTS OD600 = also measured in rRNA inh HTS; calls as there; OD600 change, %; measured here: OD600 growth;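 optical density of the mix in the first replicate; 0 = DMSO median and -100 = no signal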
rRNA inh HTS RFP = further read-out of rRNA inh HTS, marked with its call; RFP signal change, %; measured here: RFP humanized mutant strains;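 first replicate; 0 = DMSO median and -100 = no signal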
* marks the source's active call; other numbers are inactive results; i = inactive; . = no result given; & = joins results of further samples. Not all compounds are listed (hit frequency here may not be typical).

Letter code: A = FGF22 binding; B = AF4-AF9 inh; C = rRNA inh HTS; D = rRNA inh HTS OD600; E = rRNA inh HTS RFP
> COc1ccc(NC(=O)N(C)C[C@@H]2OCCCC[C@@H](C)Oc3ccc(NS(=O)(=O)c4ccc(Cl)cc4)cc3C(=O)N([C@H](C)CO)C[C@H]2C)cc1
  A = i; B = 2.7; C = 3; D = 8; E = -0.4

> C[C@@H]1CCCCO[C@H](CN(C)C)[C@H](C)CN([C@H](C)CO)C(=O)c2cc(NC(=O)Nc3ccc4c(c3)OCO4)ccc2O1
  A = i; B = 13; C = 4; D = 2; E = 0.1

> CCN1[C@@H]2c3ccc(-c4ccccc4)c(=O)n3C[C@H]1[C@H](CO)[C@H]2C(=O)Nc1ccccc1
  A = i; B = -1.2; C = 2; D = -5; E = -1.6

> C[C@H]1CN([C@@H](C)CO)C(=O)Cc2cc(NC(=O)Nc3ccccc3)ccc2O[C@@H]1CN(C)C(=O)Nc1ccc2c(c1)OCO2
  A = i; B = -4.5; C = 2; D = 10; E = 0.6

> CO[C@H]1CN(C)C(=O)c2ccc(NC(=O)CC(F)(F)F)cc2OC[C@H](C)N(C(=O)C2CCOCC2)C[C@@H]1C
  A = i; B = -0.3; C = 2; D = 3; E = 2.9

> CN(C)C(=O)c1ccc(-c2ccc([C@@H]3[C@H](CO)N4CCCCN(S(C)(=O)=O)C[C@@H]34)cc2)cc1
  A = i; B = -1.8; C = 4; D = 23; E = -1.0

> CC(C)CC#Cc1ccc2c(c1)O[C@@H](CN(C)C(=O)Nc1ccccc1)[C@@H](C)CN([C@H](C)CO)S2(=O)=O
  A = i; B = -13; C = 2; D = 3; E = -1.5

> CO[C@@H]1CN(C)C(=O)c2ccc(NC(=O)C3CCCC3)cc2OC[C@@H](C)N(Cc2cccnc2)C[C@H]1C
  A = i; B = -11; C = -4; D = -7; E = 2.3

> C[C@@H]1CN([C@@H](C)CO)C(=O)c2cc(NS(=O)(=O)c3ccc(Cl)cc3)ccc2O[C@@H](C)CCCCO[C@@H]1CN(C)C(=O)Nc1cccc2ccccc12
  A = i; B = -3.5; C = 4; D = -2; E = 2.4

> C[C@@H]1CN([C@@H](C)CO)C(=O)Cc2cc(NS(C)(=O)=O)ccc2O[C@H]1CN(C)C(=O)Nc1cccc2ccccc12
  A = i; B = 2.7; C = 3; D = -3; E = 1.8

> CCOc1ccccc1-n1nnnc1SCC(=O)N(C)C1CCS(=O)(=O)C1 (centres undefined)
  A = i; B = 8.2; C = 5; D = 26; E = 1.8

> CC(C)(C)[S@](=O)N1Cc2cc(C(=O)NCC(F)(F)F)nc(-c3cccc(-c4cccc(F)c4)c3)c2[C@@H]1CCO
  A = i; B = 2.8; C = -8; D = -21; E = 27

> CO[C@H]1CN(C)C(=O)c2ccc(NC(=O)C3CC3)cc2OC[C@H](C)N(C(=O)C2CCOCC2)C[C@@H]1C
  A = i; B = -0.1; C = -1; D = 2; E = 0.1

> CO[C@@H]1CN(C)C(=O)c2cc(NC(=O)Nc3ccccc3F)ccc2OC[C@H](C)N(C(C)=O)C[C@H]1C
  A = i; B = 3.0; C = -1; D = 2; E = -0.5

> Cc1noc(C)c1NC(=O)N(C)C[C@@H]1Oc2ccc(N(C)C)cc2C(=O)N([C@H](C)CO)C[C@H]1C
  A = i; B = 1.6; C = 0; D = 11; E = -2.0

> CSc1ccccc1-c1cnc(NC(C)=O)cn1
  A = i; B = -4.5; C = 16; D = 1; E = -0.6

> Cc1noc(C)c1NC(=O)N(C)C[C@@H]1Oc2ccc(NC(=O)CCCCCC(=O)Nc3ccccc3N)cc2C(=O)N([C@@H](C)CO)C[C@@H]1C
  A = i; B = -3.3; C = 0; D = 4; E = -1.6

> CCC(=O)N1CCCCN2[C@@H](CO)[C@@H](c3ccc(-c4cccc(C#N)c4)cc3)[C@@H]2C1
  A = i; B = 2.3; C = -5; D = 6; E = 2.4

> O=C1C=C(N2CCOCC2)c2cccc3cccc1c23
  A = i; B = 8.5; C = -16; D = -40; E = 24

> C[C@H](CO)N1C[C@H](C)[C@@H](CN(C)C(=O)c2ccccc2)OCCCC[C@H](C)Oc2ccc(NC(=O)c3ccncc3)cc2C1=O
  A = i; B = -23; C = -2; D = -5; E = -1.4

> COc1ccc(CNC(=O)C[C@@H]2C=C[C@H](NS(=O)(=O)c3cccc(OC)c3)[C@H](CO)O2)cc1
  A = i; B = -2.1; C = -2; D = 1; E = -3.6

> O=C(Nc1ccc(C(F)(F)F)cc1)N[C@@H]1C=C[C@@H](CC(=O)N2CCCCC2)O[C@H]1CO
  A = i; B = 0.5; C = 4; D = 2; E = -0.7

> CO[C@@H](CN(C)C(=O)c1cc(Cl)cc(Cl)c1)[C@H](C)CN(C(=O)Nc1ccc(F)cc1)[C@@H](C)CO
  A = i; B = 1.1; C = -6; D = -11; E = 3.4

> N#C[C@@H]1[C@H](c2ccc(C#CC3CCCC3)cc2)[C@H](CO)N1S(=O)(=O)c1ccccc1
  A = i; B = -0.8; C = -10; D = -40; E = 22

> C[C@H]1CN([C@@H](C)CO)C(=O)c2ccccc2-c2ccccc2CO[C@@H]1CN(C)Cc1cccnc1
  A = i; B = -3.7; C = 0; D = -2; E = -2.7

> COc1ccc(NC(=O)N(C)C[C@@H]2Oc3ccc(NC(=O)c4ccncc4)cc3CC(=O)N([C@H](C)CO)C[C@@H]2C)cc1
  A = i; B = -5.5; C = 6; D = 9; E = -1.9

> CCCN(C)C[C@@H]1OCCCC[C@H](C)Oc2ccc(NC(=O)Cc3ccccc3)cc2C(=O)N([C@H](C)CO)C[C@@H]1C
  A = i; B = 7.0; C = 2; D = -2; E = 0.3

> O=C1CC(=O)Nc2ccccc2N1
  A = i; B = -0.2; C = 12; D = 13; E = -2.3

> COc1ccc2c3c([nH]c2c1)[C@H](CO)N(C(=O)C1CCC1)CC31CN(C)C1
  A = i; B = 3.8; C = 7; D = 21; E = -4.2

> O=S(=O)(c1ccccc1)N1CCCc2nc(-c3ccc(F)cc3)ccc21
  A = .; B = -3.1; C = -8; D = -23; E = 0.2

> COCC(=O)N1CC(=O)N2[C@H](CO)[C@H](c3ccc(C4=CCCC4)cc3)[C@@H]2C1
  A = i; B = -2.9; C = 6; D = 7; E = -1.3

> CCCNC(=O)N1[C@H](C#N)[C@@H](c2ccc(-c3cccnc3)cc2)[C@H]1CO
  A = i; B = -2.3; C = 2; D = -1; E = -2.5

> CNC(=O)C[C@@H]1CC[C@H]2[C@@H](COc3ccc(NC(=O)c4cccc(F)c4)cc3C(=O)N2C)O1
  A = i; B = -1.8&-2.5; C = -4; D = -5; E = -3.0

> Cc1ccc(S(=O)(=O)Nc2ccc3c(c2)C(=O)N([C@@H](C)CO)C[C@@H](C)[C@@H](CN(C)C(=O)CCCN(C)C)OCCCC[C@@H](C)O3)cc1
  A = i; B = 1.7; C = 5; D = 8; E = 0.4

> CCCC(=O)Nc1ccc2c(c1)C(=O)N(C)[C@H]1CC[C@@H](CC(=O)Nc3cn(C)nc3C)O[C@H]1CO2
  A = i; B = -1.3; C = 2; D = 2; E = -0.3

> O=C(C[C@@H]1CC[C@@H](NC(=O)Nc2ccc(C(F)(F)F)cc2)[C@@H](CO)O1)NCCN1CCCC1
  A = i; B = 4.1; C = -2; D = -1; E = 2.7

> C[C@@H]1CN([C@H](C)CO)C(=O)c2cc(-c3ccncc3)cnc2O[C@@H]1CN(C)C(=O)NC1CCCC1
  A = i; B = -5.7; C = 3; D = 1; E = -0.8

> Cc1ccc(S(=O)(=O)Nc2ccc3c(c2)CC(=O)N([C@@H](C)CO)C[C@@H](C)[C@H](CN(C)S(C)(=O)=O)O3)cc1
  A = i; B = -8.6; C = 5; D = 12; E = -1.4

> CC(=O)N(C)C[C@@H]1Oc2ncc(C#C[C@H](C)O)cc2C(=O)N([C@@H](C)CO)C[C@@H]1C
  A = i; B = -4.3; C = 4; D = 5; E = -0.6

> CO[C@H]1CN(C)C(=O)c2ccc(NC(=O)Nc3ccccc3)cc2OC[C@@H](C)N(C(=O)CC2CC2)C[C@H]1C
  A = i; B = 2.5; C = -5; D = -9; E = 4.1

> COc1ccc(CN(C)C[C@H]2Oc3c(NC(=O)c4cc(C)nn4C)cccc3C(=O)N([C@H](C)CO)C[C@@H]2C)cc1
  A = i; B = -0.6; C = -5; D = -7; E = 0.0

> O=C(C[C@@H]1CC[C@@H](NC(=O)C2CC2)[C@H](CO)O1)NCC1CC1
  A = i; B = -2.5; C = 2; D = 0; E = -1.9

> C[C@H](CO)N1C[C@H](C)[C@@H](CN(C)Cc2ccc(C(=O)O)cc2)Oc2ccc(NC(=O)CCN3CCOCC3)cc2C1=O
  A = i; B = -0.5; C = 2; D = 11; E = -2.5

> CCCNC(=O)N(C)C[C@@H]1Oc2ncc(C#CC3CC3)cc2C(=O)N([C@H](C)CO)C[C@H]1C
  A = i; B = -1.7; C = 1; D = 14; E = -0.2

> O=C(NCC[C@H]1CC[C@@H](NC(=O)C2CCCCC2)[C@H](CO)O1)Nc1ccc(Cl)cc1
  A = i; B = 8.5; C = -10; D = -15; E = 0.6

12 entries from above, ordered by length of the SMILES, descending:
Letter code: A = FGF22 binding; B = AF4-AF9 inh; C = rRNA inh HTS; D = rRNA inh HTS OD600; E = rRNA inh HTS RFP
> Cc1ccc(S(=O)(=O)Nc2ccc3c(c2)C(=O)N([C@@H](C)CO)C[C@@H](C)[C@@H](CN(C)C(=O)CCCN(C)C)OCCCC[C@@H](C)O3)cc1
  A = i; B = 1.7; C = 5; D = 8; E = 0.4

> C[C@@H]1CCCCO[C@H](CN(C)C)[C@H](C)CN([C@H](C)CO)C(=O)c2cc(NC(=O)Nc3ccc4c(c3)OCO4)ccc2O1
  A = i; B = 13; C = 4; D = 2; E = 0.1

> Cc1ccc(S(=O)(=O)Nc2ccc3c(c2)CC(=O)N([C@@H](C)CO)C[C@@H](C)[C@H](CN(C)S(C)(=O)=O)O3)cc1
  A = i; B = -8.6; C = 5; D = 12; E = -1.4

> COc1ccc(NC(=O)N(C)C[C@@H]2Oc3ccc(NC(=O)c4ccncc4)cc3CC(=O)N([C@H](C)CO)C[C@@H]2C)cc1
  A = i; B = -5.5; C = 6; D = 9; E = -1.9

> CC(C)(C)[S@](=O)N1Cc2cc(C(=O)NCC(F)(F)F)nc(-c3cccc(-c4cccc(F)c4)c3)c2[C@@H]1CCO
  A = i; B = 2.8; C = -8; D = -21; E = 27

> CN(C)C(=O)c1ccc(-c2ccc([C@@H]3[C@H](CO)N4CCCCN(S(C)(=O)=O)C[C@@H]34)cc2)cc1
  A = i; B = -1.8; C = 4; D = 23; E = -1.0

> CO[C@@H]1CN(C)C(=O)c2cc(NC(=O)Nc3ccccc3F)ccc2OC[C@H](C)N(C(C)=O)C[C@H]1C
  A = i; B = 3.0; C = -1; D = 2; E = -0.5

> COc1ccc(CNC(=O)C[C@@H]2C=C[C@H](NS(=O)(=O)c3cccc(OC)c3)[C@H](CO)O2)cc1
  A = i; B = -2.1; C = -2; D = 1; E = -3.6

> CCCNC(=O)N1[C@H](C#N)[C@@H](c2ccc(-c3cccnc3)cc2)[C@H]1CO
  A = i; B = -2.3; C = 2; D = -1; E = -2.5

> COc1ccc2c3c([nH]c2c1)[C@H](CO)N(C(=O)C1CCC1)CC31CN(C)C1
  A = i; B = 3.8; C = 7; D = 21; E = -4.2

> O=S(=O)(c1ccccc1)N1CCCc2nc(-c3ccc(F)cc3)ccc21
  A = .; B = -3.1; C = -8; D = -23; E = 0.2

> O=C1C=C(N2CCOCC2)c2cccc3cccc1c23
  A = i; B = 8.5; C = -16; D = -40; E = 24

(listing goes on)
Letter code: A = FGF22 binding; B = AF4-AF9 inh; C = rRNA inh HTS; D = rRNA inh HTS OD600; E = rRNA inh HTS RFP
> C[C@H]1CCCCO[C@H](CN(C)C(=O)Nc2ccc(F)cc2)[C@@H](C)CN([C@@H](C)CO)C(=O)c2cc(NC(=O)Nc3ccccc3)ccc2O1
  A = i; B = 1.2; C = 0; D = 3; E = 0.2

> CCN1C[C@@H](C)[C@H](OC)CN(C)C(=O)c2ccc(NC(=O)c3ccno3)cc2OC[C@H]1C
  A = i; B = -0.9; C = 2; D = 2; E = -0.2

> CCCNC(=O)[C@H]1[C@H](CO)[C@H]2Cn3c(cccc3=O)[C@H]2N1Cc1ccccn1
  A = i; B = -0.5; C = -1; D = -5; E = 2.4

> O=C(C[C@H]1CC[C@H](NC(=O)CCN2CCCCC2)[C@H](CO)O1)Nc1ccc(-c2ccccc2)cc1
  A = i; B = 2.7; C = 0; D = 2; E = 0.2

> C[C@H]1CN([C@@H](C)CO)C(=O)c2cccc(NC(=O)C3CCOCC3)c2O[C@H]1CN(C)S(=O)(=O)c1cn(C)cn1
  A = i; B = -2.0; C = 2; D = 0; E = -1.7

> O=C(CN1CCOCC1)NCC[C@@H]1CC[C@H](NC(=O)c2ccc3c(c2)OCO3)[C@@H](CO)O1
  A = i; B = 1.2; C = 3; D = 2; E = -1.9

> C[C@@H]1CN([C@@H](C)CO)C(=O)c2cc(C#CCN(C)C)cnc2O[C@@H]1CN(C)C(=O)c1ccc(F)cc1
  A = i; B = -3.8; C = 9; D = 7; E = 0.3

> C[C@@H]1CN([C@@H](C)CO)S(=O)(=O)c2ccc(-c3cncnc3)cc2O[C@H]1CN(C)Cc1ccncc1
  A = i; B = 4.0; C = -4; D = -8; E = 0.0

> COc1ccc2c3c(n(C)c2c1)[C@H](CO)N(CC1CCCC1)CC31CCN(C(=O)Nc2ccccc2)CC1
  A = i; B = -0.1; C = -4; D = -14; E = 6.3

Compound activity: PubChem BioAssay, Broad Institute
